gsp agonist = activates gsp, the McCune-Albright syndrome mutation. gsp mutant cells, cAMP HTRF, 30 min; control for the full effect not named in the record. Potency, µM (titrated, usually from 76.9 µM), without a hit: at the highest dose activation (cAMP increase), usual class: activators. 0.13% of 340,000 active. AID 624287; active = well fitted activation curve with a large enough effect; inconclusive = small, poorly fitted or top-dose-only effect, or another doubt; inactive = no such curve, though single readings can be large or run the other way; cell line not stated here;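 note: phosphodiesterase inhibitor Ro 20-1724 added with compounds to block cAMP breakdown; potency is the fitted concentration of half-maximal effect; nearly all actives have a fitted effect of over 60% in size; about a fifth of the inactives were tested at one dose only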
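Cells stably selected in G418 were plated at 2000/well, grown 16-24 hr, then given compounds in DMSO with the PDE inhibitor […] (300 uM solution added) for 30 min at 37C; cAMP was read by HTRF.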
Sfp PPTase inh = Sfp phosphopantetheinyl transferase inhibition. Q9F4F7. Biochemical Sfp PPTase activity, qHTS. Potency, µM, without a hit: max response, negative = inhibition, usual class: inhibitors. 3.5% of 310,000 active; active = well fitted inhibition curve with a large enough effect; inconclusive = small, poorly fitted or top-dose-only effect, or another doubt; inactive = no such curve, though single readings can be large or run the other way;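 note: the enzyme is Sfp with the accession as filed and its product quenches rhodamine fluorescence; potency is the fitted concentration of half-maximal effect; 0% = enzyme reaction without inhibitor and -100% = no enzyme wells; top concentration of the series not given in the record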
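After 15 min at room temperature with compound, 15 nM Sfp received 5 uM rhodamine-CoA plus 12.5 uM BHQ-2-ybbR (50 mM Hepes pH 7.6, 10 mM MgCl2). Rate came from the fluorescence difference over 30 min, ex 525/em 598 nm.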
TRPV1 potentiator = potentiators of human vanilloid receptor 1 (TRPV1); Q8NER1; potentiation, % at 8.33 µM; 0.02% of 320,000 active; AID 540277; TRPV1-expressing cells, Fluo-8 calcium influx, capsaicin EC20 potentiation; host cell line not named in the record; control for the full effect not named in the record; active means potentiation above 80%; inconclusive means 30% to 80%; inactive means below 30%; note: 0% is about no effect
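Fluo-8 calcium influx in TRPV1-expressing cells, kinetic read (ex 480/em 520 nm). Compound added and read 3 min for agonist activity, followed by capsaicin at EC20 final and 2 min further read for enhancement.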
ClpP mod = qHTS Assay for Activators of ClpP; ATP-dependent Clp protease proteolytic subunit (Bacillus subtilis (strain 168)), P80244; purified B. subtilis ClpP, FRET peptide cleavage, 20 min; Potency, µM (highest dose often 57.5 µM), for inactives: at the top dose activity change, negative = active; 1.9% of 340,000 active; active = well fitted falling curve with a large enough effect; inconclusive = small, poorly fitted or top-dose-only effect; inactive = no such curve, though single readings can be large or run the other way; note: potency is the fitted concentration of half-maximal effect; the source files actives as falling curves though it sought activators and does not explain the sign; nearly all actives have a fitted effect of over 65% in size; many hits overshoot -100%
Target sequence (P80244 whole entry, looked up): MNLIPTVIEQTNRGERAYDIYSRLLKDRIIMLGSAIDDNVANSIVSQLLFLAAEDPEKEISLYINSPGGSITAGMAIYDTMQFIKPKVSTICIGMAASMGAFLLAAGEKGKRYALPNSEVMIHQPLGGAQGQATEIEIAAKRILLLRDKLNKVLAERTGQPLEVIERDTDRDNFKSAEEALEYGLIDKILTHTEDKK
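Purified B. subtilis ClpP, 10 microg/mL final in Tris/HCl pH8 with KCl, BSA, glycerol and Tween-20, cleaved an Abz/nitrotyrosine-quenched decapeptide. Fluorescence (ex 320, em 430) was read at 0 and 20 min at room temperature. Delta was normalized to 5.8 microM ADEP and DMSO/no-enzyme controls.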
Menin MLL FP FL = inhibitors of human menin-MLL interaction, wild-type MLL peptide | Fluorescence polarization, fluorescein-MLL peptide displacement from menin | FP activity change, % at 61.4 µM | 290,000 tested, under 10 active | AID 1766; inconclusive = falling polarisation curve, or a change in total fluorescence; inactive = total fluorescence flat and polarisation flat or rising; no compound was filed as active; the % refers to the polarisation; negative = inhibition;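 note: % of control where 0% means no effect; inhibitors lower the polarisation; unlabelled MLL peptide was the positive control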
gsp antag = antagonists of gsp mutant (McCune-Albright syndrome); gsp-mutant cells, cAMP HTRF, 30 min; control for the full effect not named in the record; Potency, µM (highest dose often 76.9 µM), for inactives: at the top dose activity change, negative = inhibition, usual class: inhibitors; 0.4% of 340,000 active; AID 624288; active = falling curve of any shape with a large fitted effect; inconclusive = falling curve, mostly with a smaller effect; inactive = flat or rising curve; cell line not stated here;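 note: intracellular cAMP measured with PDE inhibitor Ro 20-1724 present during compound exposure; potency is the fitted concentration of half-maximal effect; % is set by controls: 0 for no effect and ±100 for the full control effect; nearly all actives have a fitted effect of over 65% in size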
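HTRF cAMP measurement after 30 min RT detection following 30 min, 37C compound treatment alongside […] (added as 300 uM solution) in G418-selected cells seeded at 2000/well and grown 16–24 h.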
D2 potentiator = human D2 receptor positive allosteric modulation | DiscoveRx D2 beta-arrestin cells, luminescence, 90 min; 100% = 57 uM dopamine signal | AID 624464 | potentiation, % (no concentration beside the values) | P14416 | 0.23% of 360,000 active; active = potentiation of 50% or more; inconclusive = 30% to 50%; inactive = 30% or less;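 note: compound concentration not given in the record; tested on top of an EC20 dose of dopamine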
Target sequence (P14416 whole entry, looked up): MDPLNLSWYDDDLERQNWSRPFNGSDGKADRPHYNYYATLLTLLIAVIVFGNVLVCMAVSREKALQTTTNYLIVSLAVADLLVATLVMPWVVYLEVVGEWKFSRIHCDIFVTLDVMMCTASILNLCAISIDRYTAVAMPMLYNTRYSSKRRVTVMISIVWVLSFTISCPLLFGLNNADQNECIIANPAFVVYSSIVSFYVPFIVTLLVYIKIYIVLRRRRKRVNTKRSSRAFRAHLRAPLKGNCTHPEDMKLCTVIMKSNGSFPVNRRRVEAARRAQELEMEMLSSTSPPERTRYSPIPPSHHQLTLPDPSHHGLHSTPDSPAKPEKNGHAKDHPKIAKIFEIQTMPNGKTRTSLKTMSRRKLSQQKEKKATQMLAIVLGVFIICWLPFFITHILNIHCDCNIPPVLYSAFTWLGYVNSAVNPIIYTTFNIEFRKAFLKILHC
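D2 cells co-treated with compound plus 50 nM dopamine (EC20) for 90 min at 37 deg C to detect potentiation. Beta-arrestin recruitment was read as enzyme-fragment luminescence after 1 h at ambient temperature. Full response was set by 57 uM dopamine.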
* = called active by the depositor; ? = inconclusive; . = not tested or not shown; & = joins results of further samples; [ ] = another dose, or the depositor's remark.

SMILES | gsp agonist | Sfp PPTase inh | TRPV1 potentiator | ClpP mod | Menin MLL FP FL | gsp antag | D2 potentiator
O=C(CN1C(=O)c2ccccc2C1=O)Nc1cccnc1 | -53%[inhibitor] | 7% | -10 | 0.7% | -2.4 | 6% | -10
Cc1cccn2c(CNC3CCCc4ccccc43)c(C(=O)N3CCOCC3)nc12 (stereo unspecified) | -62% | 13% | 1 | -3.1% | -4.0 | 20% | -17
COc1ccc(NC(=O)c2cc3n(n2)C(C(F)(F)F)CC(c2ccc(OC)cc2)N3)cc1 (stereo unspecified) | 15% | -5% | -13 | -1.6% | 0.1 | 10% | 5
COc1ccc(S(=O)(=O)N2CCOC2CNC(=O)C(=O)NCCN2CCOCC2)cc1 (stereo unspecified) | -46%[inhibitor] | 13% | 9 | 0.5% | . | 5% | -10
Cc1oc(-c2cccc(Cl)c2)[n+]([O-])c1C | 17% | 11% | -10 | -1.0% | 4.6 | -3% | -9
Cc1ccc(CCNC(=O)C2CCC(=O)N2C(C)C)cc1 (stereo unspecified) | -8% | 9% | -4 | 0.3% | 2.7 | 4% | -4
CN1CCC(OC(=O)c2cccc(Cl)c2)CC1 | 21%[15.4 µM] | 3% | ? | . | -2.5 | 15% | -8
Cc1ccc(C)c(OCc2cc(C(=O)N3CC[C@H](O)C3)no2)c1 | -18% | 4% | -24 | -1.7% | . | 1% | -4
COc1ccccc1CN1CC(C(=O)NCc2cc(F)cc(C(F)(F)F)c2)CCC1=O (stereo unspecified) | 44% | 5% | 1 | -0.7% | . | 9% | -9
CCSc1nc2c(c(=O)[nH]1)C(c1cccnc1)C(C(=O)OC(C)C)=C(C)N2 (stereo unspecified) | ? | -8% | 26 | -8.7% | 1.7 | 0% | -2
Cc1ccc(OCCCC(=O)Nc2ccc(N3CCOCC3)cc2)c(C)c1 | -13% | -11% | -15 | 3.1% | 2.4 | 7% | 11
CCOc1ccc(CN(C)Cc2cc(=O)oc3cc(C)c(Cl)cc23)cc1 | -1% | -1% | -2 | . | 2.7 | -1% | -3
Cc1cccc(C)c1Nc1c(-c2ccc(N3CCOCC3)cc2)nc2ncccn12 | ? | -21% | -13 | 0.9%&-0.1% | ? | -12% | 11
CN(CCc1cnn(C)c1)Cc1cn[nH]c1-c1ccc(-c2ccccc2)cc1 | -12%[15.4 µM] | 10% | 1 | . | 0.4 | 12% | -11
Cc1cc2cc(CCNC(=O)CC(C)C)c(=O)[nH]c2cc1C | . | 18% | 21 | . | 3.1 | . | .
CCn1c(C(C)NC(=O)c2ccc(OC)c(OC)c2)nc2ccccc21 (stereo unspecified) | -38%[inhibitor] | 12% | 4 | -0.2% | 1.3 | 18% | -39
CCOC(=O)c1[nH]c(C)c(/C(C)=N\O)c1C | 10%[15.4 µM] | . | . | . | . | 10% | -1
NC(=O)CSc1nnc(NC(=O)c2ccc(S(=O)(=O)N3CCOCC3)cc2)s1 | 23% | -6% | 3 | 0.2% | . | 5% | -1
COc1ccc(C(=O)COC(=O)CCC(=O)Nc2ccc(C(C)=O)cc2)cc1 | -2% | 2% | -14 | 1.3% | . | -8% | -7
CC(C)c1ccc(S(=O)(=O)N2CCC(C(=O)N3CCC3)CC2)cc1 | -14% | . | -4 | 0.5% | . | 4% | -3
Cc1nn(C(=O)c2cccc([N+](=O)[O-])c2)c(C)c1Br | 19% | 6% | -7 | . | 2.4 | 1% | -4
Cc1onc(-c2ccccc2Cl)c1C(=O)N1CC(C)CC(C)C1 (stereo unspecified) | 0% | 9% | -1 | . | 6.1 | -11% | 2
Cc1noc(C)c1NC(=O)Nc1cccc2c1O[C@H](CN(C)C(=O)NC1CCCCC1)[C@@H](C)CN([C@H](C)CO)C2=O | 19% | . | . | -2.3% | . | 8% | 2
Cc1ccc(C(=O)CSc2ccccc2C(=O)O)cc1 | -19% | 14% | 8 | 1.6% | -1.2 | 9% | -3
Cc1ccc(-n2ncc3c2CC(C)(C)CC3NC(=O)c2ccncc2)cc1 (stereo unspecified) | 23%[15.4 µM] | 10% | -12 | -1.7% | 0.1 | -9% | -7
(continued)
SMILES | gsp agonist | Sfp PPTase inh | TRPV1 potentiator | ClpP mod | Menin MLL FP FL | gsp antag | D2 potentiator
COC(=O)CC1C(=O)NCCN1C(=O)Nc1ccccc1 (stereo unspecified) | -5% | 4% | -3 | 0.5% | 0.5 | 14% | 3
COc1ccc(/C=N/NC(=O)c2cc(C3CC3)[nH]n2)cc1OC | 36%[15.4 µM] | 4% | -2 | . | 2.0 | 11% | -6
Clc1cccc(CN2CCN(Cc3ccco3)CC2)c1 | -6%[15.4 µM] | ? | -15 | -2.9% | -6.3 | 1% | -12
NC(=O)N/N=C/c1c(F)c(F)c(F)c(F)c1F | 8%[15.4 µM] | 28% | 5 | . | -0.5 | . | 11
CCOC(=O)C(C)(C)Sc1nc2c(cnn2-c2ccc(Cl)cc2)c(=O)[nH]1 | -38%[inhibitor] | 7% | . | 0.2% | 3.8 | -16% | -3
CC(=O)COc1coc(CN2CCN(c3ccc(F)cc3)CC2)cc1=O | 13% | 10% | -17 | -2.2% | . | 4% | -7
O=S(=O)(Cc1ccccc1)Nc1cccc(F)c1 | -42%[inhibitor] | 21% | 10 | . | 0.3 | 8% | -5
CC1CCCN(C/C(O)=C(\C#N)c2nc3ccccc3[nH]2)C1 (stereo unspecified) | -23% | ? | 16 | -1.5% | 5.5 | 2% | 2
Cc1nn(Cc2ccccc2Cl)c(C)c1NC(=O)c1cc(-c2ccc(F)cc2)on1 | 15% | 13% | . | -0.5% | 3.9 | 8% | -3
Cc1ccc(N(CC(=O)NC2CCCCC2C)S(=O)(=O)c2c(C)noc2C)cc1 (stereo unspecified) | -27% | 17% | -32 | 0.7% | . | 9% | -1
CN(CC1CCCO1)S(=O)(=O)c1ccc(C(=O)Nc2ccccc2F)cc1 (stereo unspecified) | 7%[15.4 µM] | . | . | -3.7% | . | 3% | 6
CCOC(=O)C1=C(C)NC(C)=C(C(=O)OCC)C1C(=O)OC1CCOC1=O (stereo unspecified) | ? | 22% | 12 | -28% | -1.2 | -2%&-2% | 0&-3
Cn1c(=O)c2c(nc(CN3CCC(C(N)=O)CC3)n2Cc2ccccc2F)n(C)c1=O | 25% | -9% | -17 | 4.8% | 0.7 | 5% | 10
COC(=O)c1ccc(NC(=O)N2CCOCC2)cc1 | 1% | 22% | -2 | 0.2% | 0.0 | 2% | 4
Cc1cc(C#N)c2ccccc2n1 | ? | 13% | 15 | -0.8% | -1.8 | 11% | -8
CCC(=O)NC(=S)N1CCN(c2ccc([N+](=O)[O-])cc2Cl)CC1 | -26% | 3% | -13 | -0.3% | 3.4 | 2% | -18
CCOC(=O)c1c(C)oc2cc(Br)c(O)c(Br)c12 | -37%[inhibitor] | -1% | ? | -0.8% | 2.5 | -1% | -3
Cc1n[nH]c(C)c1CCC(=O)N/N=C/c1cccs1 | 4% | 20% | 11 | . | 3.8 | -11% | -3
C/C(CC(=O)Nc1ccccn1)=N\NC(=O)c1ccc(C)cc1 | 0% | -1% | -16 | 13% | -4.4 | 4% | -22
COc1ccc2[nH]cc(C(=O)CN3CCC(C)CC3)c2c1 | 5% | 8% | 3 | -4.5% | -0.6 | 13% | -9
CCOc1cc(N2CCOCC2)c(OCC)cc1NC(=O)CN1C(=O)C2CC=CCC2C1=O (stereo unspecified) | 9%[15.4 µM] | -8% | 5 | . | 1.6 | -3% | 7
CC(C)OC(=O)c1ccc(N)cc1 | -4%[15.4 µM] | 19% | -5 | . | -2.3 | . | -37
Cc1cccc(NC(=S)NNC(=O)CCn2cc(C)cn2)c1 | -22% | 5% | 4 | -1.4% | 1.4 | 7% | -25
Cc1nn(C)c(C)c1NC(=O)Nc1ccc(Cl)c(Cl)c1 | -19%[15.4 µM] | 2% | -14 | -2.1% | 1.0 | 5% | -1
COC(=O)c1c(NC(C)=O)sc(C)c1C | -8% | 6% | 13 | . | 0.9 | 3% | -6
COc1ccc(NC(=O)c2cccc(NC3=NC4CS(=O)(=O)CC4S3)c2)cc1Cl (stereo unspecified) | ? | 15% | 3 | -2.3% | -2.3 | 5% | 1
CCOC(=O)C(CC)Sc1nc2c(cnn2-c2ccc(F)cc2)c(=O)[nH]1 (stereo unspecified) | -6% | 9% | 7 | . | -3.5 | 2% | -1
Cc1c(CC(=O)NCC(=O)O)c(=O)oc2cc3c(cc12)CCC(C)(C)O3 | ? | 17% | 5 | 3.9% | -0.2 | 9% | -11

Some of the entries above in a different format.
Each structure is followed by: gsp agonist, Sfp PPTase inh, TRPV1 potentiator, ClpP mod, Menin MLL FP FL, gsp antag, D2 potentiator
> COC(=O)CC1C(=O)NCCN1C(=O)Nc1ccccc1 (stereo unspecified)
  -5%, 4%, -3, 0.5%, 0.5, 14%, 3
> COc1ccc(/C=N/NC(=O)c2cc(C3CC3)[nH]n2)cc1OC
  36%[15.4 µM], 4%, -2, ., 2.0, 11%, -6
> Clc1cccc(CN2CCN(Cc3ccco3)CC2)c1
  -6%[15.4 µM], ?, -15, -2.9%, -6.3, 1%, -12
> NC(=O)N/N=C/c1c(F)c(F)c(F)c(F)c1F
  8%[15.4 µM], 28%, 5, ., -0.5, ., 11
> CCOC(=O)C(C)(C)Sc1nc2c(cnn2-c2ccc(Cl)cc2)c(=O)[nH]1
  -38%[inhibitor], 7%, ., 0.2%, 3.8, -16%, -3
> CC(=O)COc1coc(CN2CCN(c3ccc(F)cc3)CC2)cc1=O
  13%, 10%, -17, -2.2%, ., 4%, -7
> O=S(=O)(Cc1ccccc1)Nc1cccc(F)c1
  -42%[inhibitor], 21%, 10, ., 0.3, 8%, -5
> CC1CCCN(C/C(O)=C(\C#N)c2nc3ccccc3[nH]2)C1 (stereo unspecified)
  -23%, ?, 16, -1.5%, 5.5, 2%, 2
> Cc1nn(Cc2ccccc2Cl)c(C)c1NC(=O)c1cc(-c2ccc(F)cc2)on1
  15%, 13%, ., -0.5%, 3.9, 8%, -3
